# Compound activity (PubChem)
# NR2E3 ag-1 – agonists of human NR2E3 nuclear receptor. Q9Y5X4. CHO-S Gal4-NCOR/VP16-NR2E3 two-hybrid, luciferase. inhibition of corepressor binding, % at 3.98 µM. hit rate 0.35% among 360,000. AID 602229;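 active = inhibition above the mean of all tested compounds plus 3 SD, cut at about 70% in these data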;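 note: 0% = DMSO with NR2E3 transfected cells and 100% = cells lacking NR2E3 construct; higher means lower luciferase signal from less NR2E3 corepressor binding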
# Target sequence (Q9Y5X4 whole entry, looked up, the tested form may be a part): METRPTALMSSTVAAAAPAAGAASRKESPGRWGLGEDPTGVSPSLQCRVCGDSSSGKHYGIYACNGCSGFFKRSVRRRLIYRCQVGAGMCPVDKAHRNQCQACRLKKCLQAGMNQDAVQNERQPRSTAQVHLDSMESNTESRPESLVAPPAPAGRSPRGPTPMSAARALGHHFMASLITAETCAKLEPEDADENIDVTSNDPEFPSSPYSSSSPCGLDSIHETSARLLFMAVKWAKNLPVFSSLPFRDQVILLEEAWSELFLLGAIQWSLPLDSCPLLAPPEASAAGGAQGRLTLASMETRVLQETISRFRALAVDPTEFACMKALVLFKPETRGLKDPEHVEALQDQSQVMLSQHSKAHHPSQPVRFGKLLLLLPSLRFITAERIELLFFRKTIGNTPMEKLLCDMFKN
# TRAIL sens C8 – sensitizes caspase-8 expressing cells to TRAIL | NB7+C8 cells + TRAIL, ATPlite viability luminescence | inhibition (viability loss, TRAIL sensitization), % at 10 µM | AID 624354 | hit rate 1% among 360,000;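 active = compounds causing at least 50% loss of cell viability in the single-dose screen, relative to plate controls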
# NR2E3 ag-2 – activates human photoreceptor nuclear receptor NR2E3 | Q9Y5X4 | GST-NR2E3/biotin-RetCOR TR-FRET, 1536-well | inhibition of corepressor binding, % at 4.78 µM | hit rate 0.12% among 320,000 | AID 2300;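 active = percent inhibition above the cutoff of mean plus 3 SD of all tested compounds, set per screening campaign, cut at about 20% in these data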;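 note: 0% = DMSO wells and 100% = biotin wells as full block of FRET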
#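 Format: 1536-well format; test system: GST-NR2E3 and biotin-RetCOR proteins; read-out basis: percent inhibition of TR-FRET ratio; timing: 5 h incubation at 4 °C; detection: time-resolved FRET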
# An asterisk follows results filed as active; / = no result given; & = joins results of further samples.
SMILES,NR2E3 ag-1,TRAIL sens C8,NR2E3 ag-2
O=C1NC[C@@H](c2ccccc2)OC(=O)[C@@H](Cc2ccc(F)cc2)CC/C=C/C[C@H]1CC(=O)N(CCO)Cc1ccccc1,33,43,/
O=C1NC[C@H](c2ccccc2)OC(=O)[C@@H](Cc2ccc(F)cc2)CC/C=C/C[C@H]1CC(=O)N(CCO)Cc1ccccc1,49,30,/
COc1cccc(OCc2cc(C(=O)N3CCNC(=O)C3Cc3ccccc3)no2)c1 (stereo not given),-63,-13,0
N[C@@H](Cc1cc(I)c(Oc2ccc(O)c(I)c2)c(I)c1)C(=O)O,-39&-31,16&-1,1&1
COc1c(Cl)cc(C(=O)Nc2ccccc2C(=O)O)cc1Cl,-73,5,3
Cc1nn(Cc2ccccc2Cl)c(C)c1NC(=O)NC12CC3CC(CC(C3)C1)C2,-7,-2,0
Cc1cccc(NC(=O)c2nc(S(=O)(=O)Cc3ccccc3)ncc2Cl)c1,34,86*,0
COc1ccc(/C(N)=N/OC(=O)CSc2ccccc2)cc1,-105,5,-2
O=C1NC[C@H](c2ccccc2)OC(=O)[C@H](Cc2ccc(F)cc2)CC/C=C/C[C@@H]1CC(=O)N(CCO)Cc1ccccc1,24,30,/
COC(=O)C1=C(C)NC(C)=C(C(=O)OCC(C)C)C1c1ccccc1[N+](=O)[O-] (stereo not given),1,13,-1
Cc1ccc2c(CC(=O)N3CCN(S(=O)(=O)c4ccc5c(c4)OCCO5)CC3)coc2c1,7,10,0
O=C(O)Cn1nc(C(F)(F)F)c2c1CCCCC2,2,-15,0
O=C(c1cc(COc2cccc(C(F)(F)F)c2)on1)N1CCC(c2ccccc2)CC1,-6,-6,-2
CCC1=C(OC(=O)c2ccccc2)C(C)(C)C(c2ccccc2)OC1=O (stereo not given),-1,1,-3
COC(=O)Nc1sc(C)nc1-c1ccccc1,-14,-3,2
Nc1nc2ccccc2n1S(=O)(=O)c1ccc(Cl)cc1,3,3,/
COc1cc(S(=O)(=O)n2c(C)nc3ccccc32)ccc1F,3,-12,-3
CCOC(=O)c1cc(S(=O)(=O)NCC2CCN(Cc3cccc(C)c3)CC2)cn1C,5,21,4
O=C(CSc1ncnc2ccccc12)NCc1ccc2c(c1)OCO2,6,-8,0
Cc1nc2ccccc2n1S(=O)(=O)c1ccc(F)cc1,17,7,2
CNC(=O)Oc1ccc2c(c1)[C@]1(C)CCN(C)[C@@H]1N2C,-5&-22,9&-1,4&1
COC(=O)c1ccc(NC(=O)Nc2ccc([N+](=O)[O-])cc2)cc1,-1,0,3
CC(C)CCC(C)NC(=O)c1ccc2nccnc2c1 (stereo not given),-57,13,-4
Cc1nn(CC(=O)Nc2ccccc2C(F)(F)F)c(=O)c2cccn12,12,-3,2
O=C1NC[C@@H](c2ccccc2)OC(=O)[C@H](Cc2ccc(F)cc2)CC/C=C/C[C@H]1CC(=O)N(CCO)Cc1ccccc1,45,14,/
O=C1NC[C@@H](c2ccccc2)OC(=O)[C@@H](Cc2ccc(F)cc2)CC/C=C/C[C@@H]1CC(=O)N(CCO)Cc1ccccc1,9,-4,/
O=C1[C@@H](c2ccccc2)[C@@H](c2ccccc2)N1c1cccnc1,-25,9,/
COc1cccc(/C=C/C(=O)c2ccc(C)c([N+](=O)[O-])c2)c1,-8,-3,0

# Filtered by structure: the compounds so far containing a CF3 group
SMILES,NR2E3 ag-1,TRAIL sens C8,NR2E3 ag-2
O=C(O)Cn1nc(C(F)(F)F)c2c1CCCCC2,2,-15,0
O=C(c1cc(COc2cccc(C(F)(F)F)c2)on1)N1CCC(c2ccccc2)CC1,-6,-6,-2
Cc1nn(CC(=O)Nc2ccccc2C(F)(F)F)c(=O)c2cccn12,12,-3,2

# Sorted by the number under NR2E3 ag-1 (falling): some entries from above
Structure	NR2E3 ag-1	NR2E3 ag-2
Cc1cccc(NC(=O)c2nc(S(=O)(=O)Cc3ccccc3)ncc2Cl)c1	34	0
O=C(CSc1ncnc2ccccc12)NCc1ccc2c(c1)OCO2	6	0
COc1c(Cl)cc(C(=O)Nc2ccccc2C(=O)O)cc1Cl	-73	3

# Molecules listed so far with an aryl thioether with sulfur outside any ring (2):
SMILES,NR2E3 ag-1,TRAIL sens C8,NR2E3 ag-2
COc1ccc(/C(N)=N/OC(=O)CSc2ccccc2)cc1,-105,5,-2
O=C(CSc1ncnc2ccccc12)NCc1ccc2c(c1)OCO2,6,-8,0

# Reprinted at random: 6 compounds from above
SMILES,NR2E3 ag-1,TRAIL sens C8,NR2E3 ag-2
O=C1NC[C@H](c2ccccc2)OC(=O)[C@@H](Cc2ccc(F)cc2)CC/C=C/C[C@H]1CC(=O)N(CCO)Cc1ccccc1,49,30,/
N[C@@H](Cc1cc(I)c(Oc2ccc(O)c(I)c2)c(I)c1)C(=O)O,-39&-31,16&-1,1&1
CC(C)CCC(C)NC(=O)c1ccc2nccnc2c1 (stereo not given),-57,13,-4
Cc1nc2ccccc2n1S(=O)(=O)c1ccc(F)cc1,17,7,2
O=C1NC[C@@H](c2ccccc2)OC(=O)[C@@H](Cc2ccc(F)cc2)CC/C=C/C[C@H]1CC(=O)N(CCO)Cc1ccccc1,33,43,/
COc1cccc(OCc2cc(C(=O)N3CCNC(=O)C3Cc3ccccc3)no2)c1 (stereo not given),-63,-13,0

# These rows are one share of the data; the hit share may differ from the screen's.
